FGF22 binding – binders of recombinant human FGF22 by thermal shift; AID 651658; calls only at 9.99 µM; SYPRO orange fluorescence; percent of sucrose octasulfate shift, DMSO zero; 340,000 compounds, 1.5% hits;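 active means melting point raised past a set limit in the mean and every replicate; three in four hits are not shown here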
Target sequence (Q9HCT0 whole entry, looked up): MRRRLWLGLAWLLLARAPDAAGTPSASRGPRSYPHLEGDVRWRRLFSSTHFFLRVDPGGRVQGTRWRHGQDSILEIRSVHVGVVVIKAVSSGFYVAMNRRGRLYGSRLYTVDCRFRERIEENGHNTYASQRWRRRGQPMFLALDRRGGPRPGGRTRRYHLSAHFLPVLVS
MLL AF4-AF9 inh – blocks AF4 peptide binding to human AF9; P42568; AlphaScreen, biotin-AF4 peptide binding to FLAG-AF9; inhibition, % at 10 µM; 350,000 compounds, 0.47% hits; AID 651704;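 active means every replicate reaching a set inhibition limit, whatever the replicate mean, cut at about 25% in these data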;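 further: 0% = plate neutral control median and 100% = total signal loss; the record names both 10 and 1 µM as test concentration; the first replicate is given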
Target sequence (P42568 whole entry, looked up): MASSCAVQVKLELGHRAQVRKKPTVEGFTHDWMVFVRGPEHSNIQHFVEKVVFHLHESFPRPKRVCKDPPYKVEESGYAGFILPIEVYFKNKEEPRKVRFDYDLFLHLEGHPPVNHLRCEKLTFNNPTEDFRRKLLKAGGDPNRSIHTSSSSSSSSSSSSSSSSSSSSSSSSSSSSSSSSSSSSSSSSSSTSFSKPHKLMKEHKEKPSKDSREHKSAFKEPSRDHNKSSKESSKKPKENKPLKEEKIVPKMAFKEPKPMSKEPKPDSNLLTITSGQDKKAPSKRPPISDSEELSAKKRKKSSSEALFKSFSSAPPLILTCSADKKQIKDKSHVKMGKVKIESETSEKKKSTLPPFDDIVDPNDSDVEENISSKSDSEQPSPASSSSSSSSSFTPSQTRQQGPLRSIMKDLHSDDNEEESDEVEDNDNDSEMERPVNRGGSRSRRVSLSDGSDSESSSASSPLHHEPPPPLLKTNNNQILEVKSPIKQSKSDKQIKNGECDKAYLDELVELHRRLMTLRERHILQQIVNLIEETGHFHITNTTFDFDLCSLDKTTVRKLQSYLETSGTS
rRNA inh HTS – inhibitors of bacterial rRNA selective over humanized ribosomes | GFP signal change (wild-type ribosome), % (no concentration beside the values) | 350,000 compounds, 1.6% hits | E. coli WT GFP vs humanized-ribosome RFP mutants, fluorescence, 24 h; stronger effect = lower value; DMSO median 0, no signal -100;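 active means significant combined selectivity score with lowered wild-type GFP, culture density cut under 30%, mutant RFP and density less affected; inactive means any of these conditions unmet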; further: one replicate is shown; some compounds called inactive have numbers as strong as hits
rRNA inh HTS OD600 – further read-out of rRNA inh HTS, marked with its call; OD600 change, %; measured here: OD600 growth;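 optical density of the mix in the first replicate; 0 = DMSO median and -100 = no signal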
rRNA inh HTS RFP – further read-out of rRNA inh HTS, marked with its call; RFP signal change, %; measured here: RFP humanized mutant strains;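 first replicate; 0 = DMSO median and -100 = no signal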
* marks the source's active call; other numbers are inactive results; i = inactive.

SMILES	FGF22 binding	MLL AF4-AF9 inh	rRNA inh HTS	rRNA inh HTS OD600	rRNA inh HTS RFP
COC(=O)C1(C(=O)OC)C[C@H](/C=C/c2ccccc2)N(Cc2ccccc2OC)[C@@H]1c1ccccc1	i	-5.7	13	11	38
COc1ccccc1-c1ccc2c(c1)O[C@H](CN(C)S(=O)(=O)c1ccccc1)[C@@H](C)CN([C@@H](C)CO)S2(=O)=O	i	-0.4	-3	2	0.1
CN(C)CCCNC(=O)C[C@@H]1CC[C@@H](NC(=O)Cc2cccnc2)[C@@H](CO)O1	i	-2.1	0	10	-0.2
O=C(c1cnccn1)N1C[C@H]2[C@@H](c3ccccc31)[C@@H](CO)N2CC1CCCC1	i	0.1	6	13	0.1
C[C@H](CO)N1C[C@H](C)[C@H](CN(C)Cc2cccc(C(F)(F)F)c2)Oc2ncc(-c3ccc(F)cc3)cc2C1=O	i	8.8	-9	-52	32
COC1=CC(=O)OC(c2ccc(C(F)(F)F)cc2)C1 (centres undefined)	i	-0.5	-2	-2	-2.1
O=C(C[C@H]1CC[C@@H](NC(=O)C2CC2)[C@@H](CO)O1)Nc1nccs1	i	-2.0	-1	-1	0.0
C[C@H]1CCCCO[C@H](CN(C)C(=O)CCCN(C)C)[C@@H](C)CN([C@@H](C)CO)C(=O)c2cc(NC(=O)NC3CCCCC3)ccc2O1	i	2.2	-1	6	-1.1
Cc1noc(C)c1NC(=O)N(C)C[C@H]1OCCCC[C@H](C)Oc2ccc(NS(=O)(=O)c3cccs3)cc2C(=O)N([C@@H](C)CO)C[C@@H]1C	i	0.7	-5	-5	0.0
N#Cc1cccc(-c2csc(C(O)c3ccc(F)cc3)n2)c1 (centres undefined)	i	-4.9	-5	-26	-1.5
CCC(=O)Nc1ccc2c(c1)OC[C@@H](C)N(Cc1ccccn1)C[C@H](C)[C@H](OC)CN(C)C2=O	i	5.5	1	4	-3.4
COc1ccc(NC(=O)N(C)C[C@H]2Oc3ccc(NC(=O)Cn4cnnn4)cc3CC(=O)N([C@@H](C)CO)C[C@H]2C)cc1	i	2.3	-1	1	-2.2
COc1cc2c(cc1OCc1ccccc1)/C(=C/C(=O)OCc1ccccc1)OC2	i	-4.2	15	12	1.8
C[C@@H](NC(=O)C[C@H]1C[C@H]2c3cc(NS(C)(=O)=O)ccc3O[C@H]2[C@H](CO)O1)c1ccccc1	i	1.0	2	9	-3.3
C[C@H]1CN([C@@H](C)CO)C(=O)c2cc(NC(=O)Cc3cn(C)c4ccccc34)ccc2O[C@H]1CN(C)S(=O)(=O)c1ccc(Cl)cc1	i	-15	-3	-2	-1.2
C[C@@H]1CN([C@@H](C)CO)S(=O)(=O)c2ccc(C3=CCCC3)cc2O[C@H]1CN(C)S(=O)(=O)c1cn(C)cn1	i	0.6	-2	-5	1.2
Cc1noc(C)c1S(=O)(=O)N(C)C[C@H]1OCCCC[C@@H](C)Oc2ccc(NC(=O)NC3CCCCC3)cc2C(=O)N([C@@H](C)CO)C[C@H]1C	i	-0.6	-2	0	2.4
CCN(CC)c1c(C)nc2ccc(C(=O)N3CCN(C(=O)c4ccco4)CC3)cn12	i	-2.5	7	11	1.4
C[C@@H]1CN([C@@H](C)CO)C(=O)c2cc(NS(C)(=O)=O)ccc2O[C@@H](C)CCCCO[C@@H]1CN(C)Cc1ccc2c(c1)OCO2	i	0.7	-2	1	-1.5
CC(=O)c1cccc(-c2ccnc3c2CC(C(=O)Nc2cccnc2)O3)c1 (centres undefined)	i	0.0	5	15	-1.0
CCCN(C)C[C@H]1Oc2ncc(C#CCN(C)C)cc2C(=O)N([C@@H](C)CO)C[C@H]1C	i	4.5	2	12	-1.6
CO[C@H]1CN(C)C(=O)c2ccc(NC(=O)Nc3ccc(Cl)cc3)cc2OC[C@H](C)N(C)C[C@H]1C	i	6.6	1	-7	3.9
CNC[C@H]1Oc2cc(-c3cccnc3)ccc2S(=O)(=O)N([C@H](C)CO)C[C@@H]1C	i	-2.0	4	5	1.8
Cc1ccc(S(=O)(=O)N[C@@H]2CC[C@@H](CC(=O)NC3CCCCC3)O[C@H]2CO)cc1	i	-1.5	0	5	0.5
CCS(=O)(=O)Nc1ccc2c(c1)C(=O)N(C)C[C@H](OC)[C@H](C)CN(CC1CCCCC1)[C@H](C)CO2	i	-0.7	1	2	-0.2

Three structures already listed, ordered by formula weight, smallest number first.
SMILES	FGF22 binding	MLL AF4-AF9 inh	rRNA inh HTS	rRNA inh HTS OD600	rRNA inh HTS RFP
C[C@@H](NC(=O)C[C@H]1C[C@H]2c3cc(NS(C)(=O)=O)ccc3O[C@H]2[C@H](CO)O1)c1ccccc1	i	1.0	2	9	-3.3
C[C@H](CO)N1C[C@H](C)[C@H](CN(C)Cc2cccc(C(F)(F)F)c2)Oc2ncc(-c3ccc(F)cc3)cc2C1=O	i	8.8	-9	-52	32
Cc1noc(C)c1NC(=O)N(C)C[C@H]1OCCCC[C@H](C)Oc2ccc(NS(=O)(=O)c3cccs3)cc2C(=O)N([C@@H](C)CO)C[C@@H]1C	i	0.7	-5	-5	0.0

Other results
SMILES	FGF22 binding	MLL AF4-AF9 inh	rRNA inh HTS	rRNA inh HTS OD600	rRNA inh HTS RFP
CO[C@@H](CN(C)Cc1nccs1)[C@@H](C)CN([C@@H](C)CO)S(=O)(=O)c1ccc(F)cc1	i	1.5	-4	-4	-4.0
Cc1noc(C)c1S(=O)(=O)Nc1ccc2c(c1)C(=O)N([C@H](C)CO)C[C@H](C)[C@@H](CN(C)C(=O)C1CCCCC1)OCCCC[C@@H](C)O2	i	1.6	3	2	-0.7
COc1cccc(NC(=O)N(C)C[C@@H]2OCc3ccccc3-c3ccccc3C(=O)N([C@H](C)CO)C[C@H]2C)c1	i	2.0	-4	-7	-2.4
C[C@@H]1CN([C@H](C)CO)C(=O)c2cc(NC(=O)Nc3ccc(F)cc3)ccc2O[C@H]1CN(C)CC1CCCCC1	i	1.1	1	0	-1.7
C[C@H](CO)N1C[C@H](C)[C@H](CN(C)S(=O)(=O)c2ccccc2)Oc2ncc(C#CC3(O)CCCC3)cc2C1=O	i	-3.4	0	-1	-1.9
O=C(NCc1ccco1)C1Cc2c(-c3ccccc3Oc3ccccc3)ccnc2O1 (centres undefined)	i	3.0	-24	-44	-13
CCC(=O)N(C)C[C@H]1Oc2cc(C#CCC3CCCC3)ccc2S(=O)(=O)N([C@H](C)CO)C[C@@H]1C	i	4.7	-15	-46	19
C[C@@H]1CN([C@@H](C)CO)C(=O)Cc2cc(NC(=O)Nc3ccccc3)ccc2O[C@@H]1CN(C)S(=O)(=O)c1ccccc1	i	-6.0	2	-2	2.4
C[C@H](CO)N1C[C@H](C)[C@@H](CN(C)Cc2ccc(-c3ccccc3)cc2)Oc2ncc(-c3cccnc3)cc2C1=O	i	12	-7	-41	23
O=C(N[C@@H]1CC[C@H](CCNS(=O)(=O)Cc2ccccc2)O[C@@H]1CO)c1cnccn1	i	-17	-1	3	-1.9
O=C(NCc1ccccc1)c1cc(C2CCCN(C(=O)C3CCCCC3)C2)on1 (centres undefined)	i	-0.6	5	-21	6.8
Cc1cccc(C)c1-n1nnnc1C1c2ccccc2C(=O)N1CCC(C)C (centres undefined)	i	-2.9	-35	-42	-9.5
COc1ccc(NC(=O)Nc2ccc3c(c2)C(=O)N([C@H](C)CO)C[C@@H](C)[C@@H](CN(C)S(=O)(=O)c2ccc(C)cc2)O3)cc1	i	-0.7	-1	-9	-1.9
COc1ccc(C#Cc2ccc([C@H]3[C@H]4CN(S(=O)(=O)c5ccccc5)CCCCN4[C@H]3CO)cc2)cc1	i	-2.9	8	11	2.1
Cn1cnc(S(=O)(=O)N2C[C@H](O)COC[C@@H]3O[C@@H](CC(=O)NCc4cc(F)cc(F)c4)CC[C@H]32)c1	i	-3.3	6	-3	-3.9
CCCNC(=O)N1C[C@H](C)[C@H](OC)CN(C)C(=O)c2cc(NS(C)(=O)=O)ccc2OC[C@@H]1C	i	-14	-1	-7	-0.3
CCN1[C@H](C(=O)NCc2ccccn2)[C@@H](CO)[C@@H]2Cn3c(ccc(C4=CCCC4)c3=O)[C@@H]21	i	-2.3	2	-3	9.2
CO[C@H]1CN(C)C(=O)c2cc(NC(C)=O)ccc2OC[C@@H](C)N(C(=O)c2ccccn2)C[C@@H]1C	i	-15	2	4	-0.9
C[C@@H]1CN([C@H](C)CO)S(=O)(=O)c2ccc(-c3cccc(F)c3)cc2O[C@H]1CN(C)S(C)(=O)=O	i	-0.4	-8	-29	-6.1
COc1ccc(CN(C)C[C@@H]2OCCCC[C@@H](C)Oc3ccc(NC(=O)c4ccncc4)cc3C(=O)N([C@@H](C)CO)C[C@@H]2C)cc1	i	4.4	2	6	-0.7
O=C(Nc1ccccc1)N1C[C@H]2[C@@H](c3ccccc31)[C@H](CO)N2C(=O)c1cccnc1	i	-16	1	1	2.7
CCCNC(=O)C1(C)CCCN(Cc2ccc3c(c2)OCO3)C1 (centres undefined)	i	1.6	11	15	1.0
Cc1cc(C)c(S(=O)(=O)N2C[C@H]3CON(C)[C@H]3C[C@H]2c2ccc(N3CCCCC3)cc2)c(C)c1	i	20	-1	-18	16
CC(C)NC(=O)Nc1ccc2c(c1)C(=O)N([C@@H](C)CO)C[C@H](C)[C@H](CN(C)C(=O)Nc1ccc(C(F)(F)F)cc1)O2	i	-2.3	-4	-3	-1.2
C[C@@H]1CN([C@H](C)CO)C(=O)c2cc(C#Cc3ccccc3F)cnc2O[C@H]1CN(C)C(=O)Cc1ccncc1	i	-0.7	-1	-4	-2.5
SMILES	FGF22 binding	MLL AF4-AF9 inh	rRNA inh HTS	rRNA inh HTS OD600	rRNA inh HTS RFP
Cc1ccc(S(=O)(=O)Nc2ccc3c(c2)C(=O)N([C@@H](C)CO)C[C@H](C)[C@H](CN(C)C(=O)NC2CCCCC2)O3)cc1	i	0.5	3	8	-0.7
C[C@@H]1CN([C@H](C)CO)C(=O)c2cccc(NC(=O)c3cnccn3)c2O[C@@H]1CN(C)Cc1ccc(C(=O)O)cc1	i	-5.2	1	4	-1.1
COc1ccc(NC(=O)Nc2ccc3c(c2)[C@H]2C[C@H](CC(=O)NCc4ccccc4F)O[C@H](CO)[C@H]2O3)cc1	i	1.7	-4	10	6.3
O=C(C[C@H]1C[C@H]2c3cc(NS(=O)(=O)c4ccccc4)ccc3O[C@H]2[C@H](CO)O1)NC1CCCCC1	i	4.4	-4	-33	35
CNC[C@H]1OCCCC[C@@H](C)Oc2ccc(NC(=O)Nc3cccc4ccccc34)cc2C(=O)N([C@@H](C)CO)C[C@H]1C	i	10	-25*	1.8*	9.2*
Cc1ccc(S(=O)(=O)N2[C@H](CC(=O)OCc3ccccc3)OC[C@@H]2C)cc1	i	-1.8	-10	-15	-7.9
COCC#Cc1ccc2c(c1)O[C@H](CN(C)C(=O)C1CCOCC1)[C@H](C)CN([C@H](C)CO)S2(=O)=O	i	-2.4	6	30	-1.1
C[C@@H](NC(=O)C[C@H]1C=C[C@H](NC(=O)c2cccnc2)[C@H](CO)O1)c1ccccc1	i	-23	4	10	0.1
CO[C@H]1CN(C)C(=O)c2cc(NC(=O)CC(F)(F)F)ccc2OC[C@H](C)N(C(=O)C2CC2)C[C@@H]1C	i	-3.9	2	-2	0.4
CC(C)N1CCC1(C)C(=O)Nc1cccc(C#N)c1 (centres undefined)	i	-1.5	19	16	1.0
CCN(CC)C(=O)C1=C(C)N(Cc2ccc(C(C)(C)C)cc2)C(=O)C(CC(=O)NCc2cccc3ccccc23)C1 (centres undefined)	i	2.8	22	3	6.6
CO[C@H]1CN(C)C(=O)c2cc(NC(=O)C3CCOCC3)ccc2OC[C@@H](C)N(Cc2nccs2)C[C@H]1C	i	-1.0	2	3	-2.4
Cc1nc(SCC(=O)NC2CCCC2)c2oc3ccccc3c2n1	i	-2.9	-1	1	-6.9
COc1cccc(S(=O)(=O)Nc2ccc3c(c2)C(=O)N(C)[C@@H]2CC[C@@H](CC(=O)NCC4CCCCC4)O[C@@H]2CO3)c1	i	-0.5	-2	1	-0.4
CCCc1cn(CC[C@@H]2CC[C@@H](NC(=O)C3CCCCC3)[C@@H](CO)O2)nn1	i	0.7	-1	6	1.8
COc1cccc(S(=O)(=O)Nc2ccc3c(c2)C(=O)N(C)[C@H]2CC[C@@H](CC(=O)NCC4CCCCC4)O[C@H]2CO3)c1	i	-0.8	-3	-18	-2.9
C[C@H]1CN([C@@H](C)CO)C(=O)c2cc(NC(=O)Cc3cn(C)c4ccccc34)ccc2O[C@@H]1CN(C)S(=O)(=O)c1cccs1	i	-0.2	-5	-4	5.7

For reference, part of the list above:
SMILES	FGF22 binding	MLL AF4-AF9 inh	rRNA inh HTS	rRNA inh HTS OD600	rRNA inh HTS RFP
COc1ccc(NC(=O)Nc2ccc3c(c2)[C@H]2C[C@H](CC(=O)NCc4ccccc4F)O[C@H](CO)[C@H]2O3)cc1	i	1.7	-4	10	6.3
O=C(C[C@H]1C[C@H]2c3cc(NS(=O)(=O)c4ccccc4)ccc3O[C@H]2[C@H](CO)O1)NC1CCCCC1	i	4.4	-4	-33	35
CNC[C@H]1OCCCC[C@@H](C)Oc2ccc(NC(=O)Nc3cccc4ccccc34)cc2C(=O)N([C@@H](C)CO)C[C@H]1C	i	10	-25*	1.8*	9.2*

Screens deposited in PubChem BioAssay by Broad Institute.

These rows are one share of the data; the hit share may differ from the screen's.
